# High-throughput results from PubChem BioAssay.
# HCMV NEC inh – disrupts HCMV UL50-UL53 complex binding; actives 0.15% (n = 190,000); HTRF UL50-UL53 interaction, normalized percent inhibition; inhibition, % (no concentration beside the values); AID 1918969;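 active = both replicates at 50% or more, plus weaker picks with an unusually low signal ratio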;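 also: stock transfer was 100 nL into about 20 µL; 0% = negative control wells and 100% = wells with untagged competitor protein; inactives centre near -12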
# GIV Gai3 FP – blocks GIV peptide binding to rat Galpha-i3. Galpha-i3/FITC-GIV peptide fluorescence polarization, 90 min; hits give low values; scaled: aluminum fluoride 0%, vehicle 100%. AID 1224905. actives 0.42% (n = 210,000). percent of control (FP), % (test concentration not listed). P08753;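 active = replicate mean at 85% of control or lower, very high polarization wells dropped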;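 also: wells of about 15 µL received 100 nL stock; the first replicate is given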
# Target sequence (P08753 whole entry, looked up): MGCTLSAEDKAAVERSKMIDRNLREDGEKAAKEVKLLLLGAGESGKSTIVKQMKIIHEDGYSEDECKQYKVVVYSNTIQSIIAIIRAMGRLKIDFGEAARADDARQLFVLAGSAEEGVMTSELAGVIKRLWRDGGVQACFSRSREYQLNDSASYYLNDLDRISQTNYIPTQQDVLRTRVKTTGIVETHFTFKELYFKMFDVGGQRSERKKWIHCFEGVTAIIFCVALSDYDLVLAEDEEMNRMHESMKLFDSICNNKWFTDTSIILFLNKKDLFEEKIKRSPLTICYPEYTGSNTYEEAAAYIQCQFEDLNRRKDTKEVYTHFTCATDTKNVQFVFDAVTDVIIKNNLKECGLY
# Sa growth 42C – blocks Staphylococcus aureus growth | S. aureus RN4220 growth, OD600, 20 h, 42 °C; hits give low values | actives 0.53% (n = 170,000) | relative growth, % (concentration not given with the values);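 active = growth at 42 °C up to 50% and 20 or more points under that at 30 °C, or under 10% at both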;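 also: 300 nL library stock went into each well; scaled to the means of positive and negative controls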
# Sa growth 42C second temp – also measured in Sa growth 42C; calls as there; relative growth, %; measured here: growth at 30 °C;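 optical density after 20 h as mean of two plates; 100% = untreated growth and lower means inhibition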
# The depositor's hits bear a star; x = no result given; & = joins results of further samples.
no.	SMILES	HCMV NEC inh	GIV Gai3 FP
1	O=c1cc(-c2ccc(F)cc2)nc(N2CCN(Cc3ccc4c(c3)OCO4)CC2)[nH]1	4.6	102.6
2	CCOC(=O)C1=C(C)N=c2s/c(=C\c3cc(Br)ccc3OC(C)=O)c(=O)n2C1c1ccc(OC)cc1 (stereo not drawn)	-24.6	110.1
3	Cc1nn(Cc2noc(C(=O)NCc3ccc(F)cc3)n2)c(C)c1Br	x	103.4
4	Cc1cc(C)c(NC(=O)Cc2csc(C)n2)c(Cl)c1	-28.2	95.9
5	COc1ccc2cc3c(nc2c1)N(C(=O)C(C)(C)C)CC3	-11.3	112.4
6	COc1cccc2sc(=NC(=O)c3ccc(S(=O)(=O)N4CCCCC4)cc3)n(C)c12	-2.6	103.2
7	COc1ccc(N2CCN(S(=O)(=O)c3ccc4[nH]c(=O)oc4c3)CC2)cc1	-29.7	101.1
8	CSc1ccccc1C(=O)OC(C)C(=O)NC1CCCCC1 (stereo not drawn)	-36.8	x

no.	Sa growth 42C	Sa growth 42C second temp
1	x	x
2	x	x
3	124.5	93.9
4	95.5	86.6
5	x	x
6	99.1	90.0
7	100.1	92.9
8	88.5	70.7

# The list continues.
no.	SMILES	HCMV NEC inh	GIV Gai3 FP
9	Nc1nnc(CCS(=O)(=O)c2ccc(Cl)cc2)s1	-6.6	100.3
10	Cc1ccc(CNC(=O)CCCCCn2c(=O)c3sccc3n(CC(=O)C(C)(C)C)c2=O)cc1	7.6	102.6
11	CN(C)c1ccc(C2CC(c3ccc(Cl)cc3)=NN2C(=O)CCC(=O)O)cc1 (stereo not drawn)	-68.1	103.6
12	COc1ccc(-c2[nH]ncc2CN2CCN(c3cc(C(F)(F)F)ccn3)CC2)cc1	-15.0	99.7
13	CCN(CC)c1cc(C)c2cc(NC(=O)c3ccc(F)cc3Cl)ccc2n1	-7.4	102.1
14	COc1ccc(C(=O)NCCc2sc(-c3cccc(F)c3)nc2C)cc1	x	98.0
15	O=C(Nc1ccc(S(=O)(=O)N2CCCCC2c2cccnc2)cc1)c1ccc(Br)cc1 (stereo not drawn)	x	104.7
16	Cc1[nH]c(C(=O)N2CCCC2)c(C)c1S(=O)(=O)N1CCCC1	-34.5	109.6

no.	Sa growth 42C	Sa growth 42C second temp
9	103.5	95.2
10	110.5	89.6
11	x	x
12	85.6	41.0
13	79.2	90.7
14	84.1	88.1
15	120.3	68.1
16	x	x

# 3 structures already listed, arranged by heavy-atom count, smallest number first.
no.	SMILES	HCMV NEC inh	GIV Gai3 FP
9	Nc1nnc(CCS(=O)(=O)c2ccc(Cl)cc2)s1	-6.6	100.3
16	Cc1[nH]c(C(=O)N2CCCC2)c(C)c1S(=O)(=O)N1CCCC1	-34.5	109.6
10	Cc1ccc(CNC(=O)CCCCCn2c(=O)c3sccc3n(CC(=O)C(C)(C)C)c2=O)cc1	7.6	102.6

no.	Sa growth 42C	Sa growth 42C second temp
9	103.5	95.2
16	x	x
10	110.5	89.6

# Next section
no.	SMILES	HCMV NEC inh	GIV Gai3 FP
17	Oc1ccccc1Oc1c(F)c(F)nc(N2CCCC2)c1F	x	106.2
18	Cc1cc(C)n(C(C)CC(=O)Nc2ccc(C)c(F)c2)n1 (stereo not drawn)	x	97.9
19	Cc1ccc2nc(-c3cc4ccccc4o3)oc(=O)c2c1	-6.0	102.8
20	CCCCN1CCCc2cc(CN(Cc3ccco3)C(=S)Nc3ccc(Cl)cc3OC)ccc21	x	104.5
21	COC(=O)c1cnn(C(=O)c2ccccc2)c1NC(=S)Nc1ccc(C)cc1C	x	102.8
22	CN(C)c1cccc(N=Cc2c(O)n(-c3ccc(Cl)cc3)c(=O)[nH]c2=O)c1	-2.4	116.8
23	CCOc1ccc(CNC(=O)Cn2nc(C)c3c(C)n(-c4ccc(C)cc4)nc3c2=O)cc1	x	99.7
24	CCOC(=O)c1noc2ncnc(N(CCC(=O)OC)c3ccccc3)c12	x	106.4

no.	Sa growth 42C	Sa growth 42C second temp
17	47.8	17.3
18	88.9	90.7
19	112.9	73.3
20	100.6	35.1
21	109.1	88.1
22	94.7	88.1
23	79.4	90.0
24	93.7	103.4

# Later entries.
no.	SMILES	HCMV NEC inh	GIV Gai3 FP
25	CCOC(=O)c1csc(Cc2c(Cl)cccc2Cl)n1	-6.7	100.9
26	CCCCN1C(=O)C(O)(CC(=O)c2c(C)coc2C)c2cc(Br)ccc21 (stereo not drawn)	x	106.6
27	COc1ccc(NC(=O)Nc2cccc(OC)c2)cc1	-10.5	96.6
28	N#Cc1c(-c2ccccc2)nc(SCc2ccccc2)[nH]c1=O	-2.7	99.8
29	CC(C)(C)c1cc2nc(C(F)(F)F)cc(N3CCN(c4ncc(C(F)(F)F)cc4Cl)CC3)n2n1	-11.9	99.6
30	Cc1ccc(C)c(N2CCN(C(=O)C3CCC(CNS(=O)(=O)c4ccc(Br)s4)CC3)CC2)c1 (stereo not drawn)	-3.5	97.5
31	Cc1cc(OCn2ccc(C(=O)O)n2)ccc1Cl	-18.4	101.4
32	O=C(CSc1nnc(-c2ccc(C(F)(F)F)cn2)o1)c1ccccc1	-5.0	101.6

no.	Sa growth 42C	Sa growth 42C second temp
25	101.5	104.8
26	76.5	88.7
27	110.1	90.1
28	99.2	91.6
29	101.2	98.1
30	108.5	88.8
31	93.4	82.2
32	106.3	89.3

# (cont.)
no.	SMILES	HCMV NEC inh	GIV Gai3 FP
33	COc1ccc(NC(=O)c2oc3ccccc3c2NC(=O)C2CCCCC2)cc1OC	-15.1	101.8
34	CCCCSc1nnc(Cn2c(=O)sc3ccccc32)n1C	-32.9	98.1
35	Cc1oc(-c2ccc(Cl)cc2)nc1Cn1c(SCc2ccc(F)cc2)nc2ccncc21	-3.4	97.6
36	CCCCNC(=O)CSc1nc2cc3c(cc2c(=O)n1CCCCCC(=O)NCc1ccc2c(c1)OCO2)OCO3	x	102.4
37	CCOc1ccc(NC(=O)N2CC=C(c3c[nH]c4ccccc34)CC2)cc1	x	167.9
38	COC(=O)c1ccc(NC(=O)COC(=O)CSc2nc(C)cc(C)n2)cc1	2.2	107.8
39	CCOC(=O)/C(C#N)=c1\s/c(=C\c2ccc(OC)cc2)c(=O)n1CC	-14.4	x
40	Cc1nn(C)c(C)c1NC(=O)c1ccccc1NC(=O)c1cccs1	-9.0	106.3

no.	Sa growth 42C	Sa growth 42C second temp
33	116.1	95.8
34	86.2	85.6
35	104.8	87.6
36	93.5	83.1
37	112.2	85.3
38	108.1	85.4
39	89.8	96.8
40	104.8	90.2

# (continued)
no.	SMILES	HCMV NEC inh	GIV Gai3 FP
41	CCN(CC)S(=O)(=O)c1ccc(C(=O)NCCc2c[nH]c3ccccc23)cc1	-8.5	x
42	COc1ccc(CNc2nc3c(-c4cccc(C)c4)nnn3c3ccccc23)cc1	-27.6	102.4
43	Cc1nnc(N2CCC(C(=O)N3CCCCC3)CC2)c2nn(-c3ccc(Cl)cc3)c(C)c12	x	103.7
44	COC(=O)c1ccc(NC(=O)NCCn2cnc3cc(C(=O)N(C)C)ccc32)cc1	-1.6	102.6
45	Cn1c2ccccc2c2nnc(SCCC(=O)O)nc21	-62.7	101.6
46	CCc1ccc(NS(=O)(=O)c2ccc3c(c2)OCCN3C)cc1	x	99.4
47	COc1ccc(OCCCC(=O)O)cc1	-23.3	x
48	CCS(=O)(=O)N1CC=C(c2c(C)n(CC(=O)N3CCCC3)c3ccccc23)CC1	x	105.9

no.	Sa growth 42C	Sa growth 42C second temp
41	117.2	93.6
42	116.2	87.2
43	106.8	88.5
44	x	x
45	93.8	95.4
46	87.5	59.0
47	94.2	84.4
48	91.5	82.9

# The results go on.
no.	SMILES	HCMV NEC inh	GIV Gai3 FP
49	CCCCNS(=O)(=O)c1ccc2c(c1)nc(SCC(=O)N1CCCC1)n2CCCC	-16.7	x
50	CCOc1cccc(C2C(C(=O)OCCOC)=C(C)NC3=C2C(=O)CC(c2ccc(OC)c(OC)c2)C3)c1 (stereo not drawn)	-38.2	103.4
51	Cc1ccccc1-c1nc2scc(CCNC(=O)C(=O)Nc3ccc(F)cc3F)n2n1	x	102.4
52	Cc1ccc(-c2noc(CNC(=O)c3ccc(C(C)(C)C)cc3)n2)cc1	-25.9	105.0
53	CCN(CC)S(=O)(=O)c1ccc2c(c1)c(=O)c(C(=O)NCc1ccccc1Cl)cn2C	-12.7	107.1
54	Cc1nc2sc(C(=O)OCC(=O)c3cc(C)n(C)c3C)c(C)c2c(=O)[nH]1	-7.9	x
55	Cc1ncc([N+](=O)[O-])n1CC(O)CCl (stereo not drawn)	-77.2&-63.3&-108.1&-45.7	x
56	Cn1cc(Cl)c(/C=N/O)n1	5.1	107.9

no.	Sa growth 42C	Sa growth 42C second temp
49	97.9	81.9
50	x	x
51	87.5	88.2
52	103.3	83.0
53	111.3	94.6
54	83.4	95.9
55	88.6&87.2	90.9&90.2
56	101.0	91.6

# (next part)
no.	SMILES	HCMV NEC inh	GIV Gai3 FP
57	Cc1ccc(C23CC4CC(CC(C(=O)NC5=NCCS5)(C4)C2)C3)cc1	x	100.7
58	O=c1cc(-c2ccccc2)nc2nc(C(F)(F)F)[nH]n12	x	99.2
59	Cc1ccc(-c2nnc(NCc3ccccc3)c3ccccc23)cc1S(=O)(=O)NC(C)(C)C	2.3	101.0
60	C=CCSC1=C(C#N)C2(CCCC2)C(C#N)C(=O)N1 (stereo not drawn)	-0.9	102.9
61	COC(=O)c1c(-c2ccc(C)c(C)c2)csc1NC(=O)C1CCCCC1C(=O)O (stereo not drawn)	x	97.2
62	CCn1c2ccccc2n2cc(-c3ccccc3)nc12	-13.8	x
63	CCOc1ccc(-c2cc(C(=O)NCCc3ccc(C)cc3)c3ccccc3n2)cc1	x	99.8
64	Cc1nc2ccc(NC(=O)COCC(=O)O)cc2nc1C	-49.5	101.0

no.	Sa growth 42C	Sa growth 42C second temp
57	95.4	92.3
58	105.5	87.2
59	x	x
60	115.0	79.9
61	57.9	22.1
62	52.4	49.2
63	112.2	93.8
64	108.4	84.2

# (cont.)
no.	SMILES	HCMV NEC inh	GIV Gai3 FP
65	CCOC(=O)C1=NNC2C(=O)N(c3cccc(Cl)c3C)C(=O)C12 (stereo not drawn)	x	103.2
66	O=C1CC2(CCCc3ccccc32)C(=O)N1CN1CCOCC1 (stereo not drawn)	6.5	98.8
67	CCn1cnc2scc(-c3ccccc3)c2c1=O	-11.6	x
68	Cc1nn2c(=O)cc(COC(=O)COc3ccccc3C)nc2s1	x	98.4
69	COc1ccc(Cn2c(=O)c3cccnc3n(CC(=O)Nc3c(C)cc(C)cc3C)c2=O)cc1	-9.3	109.0
70	COc1ccc(C(=O)Oc2cc(/C=c3\sc4nc5ccccc5n4c3=O)ccc2OC)cc1	-17.7	104.1
71	Cc1ccc(NC(=O)CC2SC(=Nc3ccccc3)N(c3ccccc3)C2=O)cc1 (stereo not drawn)	20.6	104.5
72	COc1ccc(CNC(=O)C2CCN(C(=O)N3CCOc4ccc(C)cc43)CC2)cc1	-21.3	103.3

no.	Sa growth 42C	Sa growth 42C second temp
65	79.3	91.5
66	92.9	85.1
67	97.7	101.2
68	91.7	95.7
69	104.7	88.0
70	x	x
71	x	x
72	107.9	85.3

# Continued, overlapping the part above by four compounds.
no.	SMILES	HCMV NEC inh	GIV Gai3 FP
69	COc1ccc(Cn2c(=O)c3cccnc3n(CC(=O)Nc3c(C)cc(C)cc3C)c2=O)cc1	-9.3	109.0
70	COc1ccc(C(=O)Oc2cc(/C=c3\sc4nc5ccccc5n4c3=O)ccc2OC)cc1	-17.7	104.1
71	Cc1ccc(NC(=O)CC2SC(=Nc3ccccc3)N(c3ccccc3)C2=O)cc1 (stereo not drawn)	20.6	104.5
72	COc1ccc(CNC(=O)C2CCN(C(=O)N3CCOc4ccc(C)cc43)CC2)cc1	-21.3	103.3
73	Cc1nc2ccn(Cc3cccs3)c(=O)c2cc1C(=O)N1CCN(c2ccccc2)CC1	x	98.8
74	Cn1c(SCc2nc(-c3ccc(Br)cc3)no2)nc2ccsc2c1=O	11.1	103.0
75	COc1ccc(N2CCN(CCCNC(=O)c3c(C)nn(-c4ccc(F)cc4)c3-n3cccc3)CC2)cc1	x	102.4
76	O=C(c1ccccc1)c1ccc2nc(Nc3cc(Cl)ccc3O)c3nncn3c2c1	x	107.9
77	CCOc1ccc(CCNC(=O)Cn2c(-c3cccs3)cc3ccccc32)cc1	x	101.9
78	Cc1ccc(CSc2ncc(Cl)c(C(=O)Nc3nnc(C)s3)n2)cc1	-36.3	97.7
79	COc1cc(NC(=O)CN2C(=O)COc3ccc(S(=O)(=O)NC4CCCC4)cc32)cc(OC)c1	x	108.1
80	O=C(O)CCC(=O)NCc1ccccc1	x	101.9

no.	Sa growth 42C	Sa growth 42C second temp
69	104.7	88.0
70	x	x
71	x	x
72	107.9	85.3
73	102.8	92.7
74	x	x
75	101.2	87.0
76	111.9	100.9
77	102.1	86.8
78	95.0	84.6
79	123.5	105.7
80	108.8	108.9

# Further entries follow:
no.	SMILES	HCMV NEC inh	GIV Gai3 FP
81	CCOC(=O)N1CCC(NC(=O)c2ccc(CNS(=O)(=O)c3ccc(F)cc3)cc2)CC1	-7.1	107.2
82	O=S(=O)(NCC1(N2CCCCC2)CCCCC1)c1cccs1	-8.4	x
83	O=C(Cc1ccccc1)NCC1OCCc2ccccc21 (stereo not drawn)	-0.4	89.2
84	CN(C)S(=O)(=O)c1ccc2c(c1)nc(C(F)(F)F)n2CCC(=O)Nc1cccc(F)c1	-34.0	109.4

no.	Sa growth 42C	Sa growth 42C second temp
81	106.2	98.4
82	78.4	87.1
83	90.1	91.7
84	x	x
